CtBP-E1A inh = qHTS Assay for Inhibitors of the CtBP/E1A Interaction; AlphaScreen GST-E1A/His-CtBP binding, 1536-well; hits give low values; control for the full effect not named in the record; activity change, % (concentration not given with the values); 0.49% of 340,000 active; in the data active means activity change below about -65%; inconclusive means about -30% to -65%; inactive means above about -30%; note: % is set by controls: 0 for no effect and ±100 for the full control effect
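Homogeneous bead-based format: GST-tagged E1A captured on glutathione donor beads, His-tagged CtBP on nickel acceptor beads; compounds precede bead addition by 2 h at 37 °C.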
gsp antag = qHTS for Antagonists of gsp, the Etiologic Mutation Responsible for Fibrous Dysplasia/McCune-Albright Syndrome: qHTS | gsp-mutant cells, cAMP HTRF, 30 min; control for the full effect not named in the record | Potency, µM (series often up to 76.9 µM), for inactives: at the top dose activity change, negative = inhibition, hits mostly inhibitors | 0.4% of 340,000 active | AID 624288, 2012; active = falling curve of any shape with a large fitted effect; inconclusive = falling curve, mostly with a smaller effect; inactive = flat or rising curve; cell line not stated here;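 note: intracellular cAMP measured with PDE inhibitor Ro 20-1724 present during compound exposure; potency is the fitted concentration of half-maximal effect; % is set by controls: 0 for no effect and ±100 for the full control effect; nearly all actives have a fitted effect of over 65% in size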
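Cells, 2000/well, grown 16–24 h in DMEM 10% FBS with 0.5 mg/ml G418, then compounds plus […] (300 uM addition stock), 30 min at 37C. cAMP read by HTRF (cAMP-d2 and anti-cAMP antibody-K in lysis buffer) after 30 min RT.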
D2 agonist = Beta-Arrestin HTS for Positive Allosteric Modulators of the Human D2 Dopamine Receptor: Agonists | D(2) dopamine receptor (Homo sapiens), P14416 | DiscoveRx PathHunter D2 beta-arrestin, luminescence, 90 min; 100% = 57 uM dopamine signal | activation, % (concentration not given with the values) | 0.084% of 360,000 active | AID 624465, 2012; in the data active = activation above about 40%; inconclusive = about 15% to 40%; inactive = below about 15%; note: compound concentration not given in the record; the text of the record calls up to 30% inactive
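DiscoveRx PathHunter D2 beta-arrestin cells (2,100/well) attached overnight, then compound-stimulated 90 min at 37 C in HBSS/10 mM HEPES/0.1% Tween-20 buffer; beta-galactosidase complementation read by luminescence after 1 h at ambient temperature. Dopamine 57 uM final (EC100) as control.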
Six1-Eya2 blk = qHTS Assay for Inhibitors of the Six1/Eya2 Interaction; AlphaScreen GST-Six1/His-Eya2 binding, biochemical; hits give low values; control for the full effect not named in the record; activity change, % (test concentration not listed); Homeobox protein SIX1 (Homo sapiens) + Protein phosphatase EYA2 (Homo sapiens), …; 0.56% of 360,000 active; AID 651725, 2012; in the data active = activity change below about -65%; inconclusive = about -30% to -65%; inactive = above about -30%; note: % is set by controls: 0 for no effect and ±100 for the full control effect; compound concentration not given in the record
Target sequence (O00167 whole entry, looked up): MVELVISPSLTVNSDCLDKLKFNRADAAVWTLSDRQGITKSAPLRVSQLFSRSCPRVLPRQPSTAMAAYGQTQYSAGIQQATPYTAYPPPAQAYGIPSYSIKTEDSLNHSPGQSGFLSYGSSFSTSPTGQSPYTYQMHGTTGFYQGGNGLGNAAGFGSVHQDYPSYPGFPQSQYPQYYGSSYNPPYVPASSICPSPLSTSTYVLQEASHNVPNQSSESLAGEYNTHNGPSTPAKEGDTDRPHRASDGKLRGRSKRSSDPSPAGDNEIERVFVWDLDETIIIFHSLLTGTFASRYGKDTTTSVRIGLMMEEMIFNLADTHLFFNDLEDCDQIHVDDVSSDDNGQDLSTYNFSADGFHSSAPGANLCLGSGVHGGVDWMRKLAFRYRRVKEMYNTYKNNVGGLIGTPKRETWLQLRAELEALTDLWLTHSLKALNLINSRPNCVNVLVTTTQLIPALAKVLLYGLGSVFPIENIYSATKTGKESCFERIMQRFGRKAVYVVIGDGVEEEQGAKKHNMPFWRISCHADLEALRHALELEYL
Target sequence (Q15475 whole entry, looked up): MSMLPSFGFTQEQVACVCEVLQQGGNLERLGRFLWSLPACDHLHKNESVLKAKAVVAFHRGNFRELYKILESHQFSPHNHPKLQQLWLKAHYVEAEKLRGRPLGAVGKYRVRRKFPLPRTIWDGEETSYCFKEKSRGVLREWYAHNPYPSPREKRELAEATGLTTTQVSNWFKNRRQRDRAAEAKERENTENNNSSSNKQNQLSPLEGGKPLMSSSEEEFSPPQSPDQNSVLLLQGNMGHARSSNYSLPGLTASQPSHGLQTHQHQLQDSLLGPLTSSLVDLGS
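GST-Six1 + His-Eya2 (5X stock: 250/500 nM); Tris pH 8.0, 300 mM NaCl, 0.05% BSA, 0.02% Tween 20; GSH donor/Ni acceptor beads; 1 h 37 °C dark; AlphaScreen readout.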
D2 potentiator = Beta-Arrestin HTS for Positive Allosteric Modulators of the Human D2 Dopamine Receptor: Potentiators. D(2) dopamine receptor (Homo sapiens), P14416. potentiation, % (no concentration beside the values). 0.23% of 360,000 active. DiscoveRx D2 beta-arrestin cells, luminescence, 90 min; 100% = 57 uM dopamine signal; active = potentiation of 50% or more; inconclusive = 30% to 50%; inactive = 30% or less;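 note: compound concentration not given in the record; tested on top of an EC20 dose of dopamine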
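PathHunter beta-arrestin assay in DiscoveRx D2 cells. Compounds were added with an EC20 of dopamine (50 nM final) for 90 min at 37 deg C. Luminescence was read 1 h after detection reagent, with 57 uM dopamine as the EC100 control.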
gsp agonist = qHTS for Agonist of gsp, the Etiologic Mutation Responsible for Fibrous Dysplasia/McCune-Albright Syndrome: qHTS | gsp mutant cells, cAMP HTRF, 30 min; control for the full effect not named in the record | Potency, µM (highest dose often 76.9 µM), without a hit: at the top dose activation (cAMP increase), actives largely listed as activators | 0.13% of 340,000 active; active = well fitted activation curve with a large enough effect; inconclusive = small, poorly fitted or top-dose-only effect, or another doubt; inactive = no such curve, though single readings can be large or run the other way; cell line not stated here;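 note: phosphodiesterase inhibitor Ro 20-1724 added with compounds to block cAMP breakdown; potency is the fitted concentration of half-maximal effect; nearly all actives have a fitted effect of over 60% in size; about a fifth of the inactives were tested at one dose only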
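Cells stably selected in G418 were plated at 2000/well, grown 16-24 hr, then given compounds in DMSO with the PDE inhibitor […] (300 uM solution added) for 30 min at 37C; cAMP was read by HTRF.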
* hit, by the source's call; ? = inconclusive; nt = not tested or not shown; [ ] = another dose, or the depositor's remark.

SMILES	CtBP-E1A inh	gsp antag	D2 agonist	Six1-Eya2 blk	D2 potentiator	gsp agonist
CCN(CC)S(=O)(=O)c1ccc(N2CCOCC2)c(NC(=O)c2cc(Cl)c3c(c2)OCO3)c1	nt	1%	0.5	-9	-3	?
O=C(N/N=C/c1ccncc1)c1nn(Cc2ccccc2)c(=O)c2ccccc12	-12	-13%	7.5	-11	17	-30%[15.4 µM]
Cc1cccc(OCc2nc(C#N)c(NCCN(C)C)o2)c1	1	7%	-4.6	-4	0	4%
COc1ccc(/C=C2\SC(=S)N(CC3CCCO3)C2=O)cc1 (stereo not drawn)	-3	-25%	-2.7	?	-13	-10%[15.4 µM]
CCC1CCCCN1C(=O)c1ccc(OC2CCN(C(=O)CCOC)CC2)cc1 (stereo not drawn)	11	8%	-3.2	2	-9	?
Cc1ccc(C2C(C(=O)c3sc(C)nc3C)=C(O)C(=O)N2CCN(C)C)o1 (stereo not drawn)	1	12%	1.4	4	-4	-35%[inhibitor]
Nc1cc(C2CCCC2)nn1-c1ccccc1	-2	8%	-2.7	5	8	9%
COC(=O)CSc1nc(-c2cccs2)ccc1C#N	20	-10%	-0.4	15	-8	?
O=C(Nc1ccc2c(c1)OCO2)c1cc(-c2ccc(O)cc2)on1	22	-10%	12	-8	2	-68%[inhibitor]
O=C1C2C3C=CC([C@@H]2C(=O)N1Cc1cccnc1)C31CC1 (stereo partly drawn)	7	-11%	-4.2	-2	-3	1%
CC1CN(S(=O)(=O)c2cccc(C(=O)NCCCn3ccnc3)c2)CC(C)O1 (stereo not drawn)	10	9%	-3.2	3	13	-35%[inhibitor]
Cc1ccc(-c2nc(N)n(S(C)(=O)=O)n2)cc1	2	5%	-5.2	18	-19	2%
COc1cccc(-c2nc(CS(=O)CC(=O)NC(C)CCc3ccccc3)c(C)o2)c1 (stereo not drawn)	nt	-9%	-1.1	-5	-10	-4%
Cc1cccc(NC(=O)[C@@H](NC(=O)[C@@H]2Cc3ccccc3CN2)C(C)C)c1	-15	-4%	-1.6	3	-23	-2%
COc1ccc(N2Cc3cccc(C(=O)N4CCOCC4)c3C2=O)cc1	5	-4%	-1.9	-4	-3	14%
CC1(c2ccc(OC(F)F)cc2)NC(=O)N(CC(=O)Nc2ccc3[nH]c(=O)[nH]c3c2)C1=O (stereo not drawn)	-2	6%	-5.0	4	1	-10%[15.4 µM]
CCN(CC)CCNC(=O)C1c2cc(OC)c(OC)cc2C(=O)N(C)C1c1cccs1 (stereo not drawn)	-7	17%	-4.2	-7	-30	?
CCOC(=O)N1CCN(C(=O)CSc2nc3c(cnn3-c3ccc(Cl)cc3)c(=O)[nH]2)CC1	1	-21%	-4.7	-3	-4	-26%
N#CC1=C(N)Oc2cc(N)ccc2C1C1CCCCC1 (stereo not drawn)	-5	-11%	-1.6	-2	-2	-13%
COCCNC(=O)c1ccccc1NC(=O)c1ccc(Cl)c(S(=O)(=O)Nc2ccc(C)cc2C)c1	19	-16%	-0.9	-1	-8	-22%
CC(=O)NS(=O)(=O)c1ccc(NC(=O)CCC2CCCC2)cc1	9	-1%	1.8	7	?	0%
CC(=O)Nc1ccc(NC(=O)c2cc(C)nn2-c2ccccc2)cc1	0	0%	-1.5	3	-13	-22%
CSCC[C@H](NC(=O)Nc1ccc(Oc2ccccc2)cc1)C(=O)O	-1	6%	-5.0	-6	-6	-2%
CN(C)Cc1c(O)ccc2c(=O)c(-c3ccccc3)c(C(F)(F)F)oc12	nt	0%	3.3	0	-1	20%
O=C(CSc1ncnc2nc[nH]c12)c1ccc2ccccc2c1	-6	-12%	0.5	-13	?	-13%
COc1cccc(CC2(CO)CCN(CC3=CC[C@H]4C[C@@H]3C4(C)C)CC2)c1	1	7%	-3.2	-4	-13	-55%[inhibitor]
O=C1OC2(CCCC2)OC(=O)C1=Cc1c[nH]c2ccccc12	10	-2%	-1.8	-1	-5	-39%[inhibitor]
Fc1ccc(-c2csc(/C=C/c3ccc4c(c3)OCO4)n2)cc1	nt	3%	-3.9	17	-6	-29%
N#Cc1c(NC(=S)NC(=O)c2ccccc2)sc2c1CCCC2	-5	-2%	1.2	-9	-6	-29%
Cc1ccc(N2CCN(C(=O)N3CCCC3)CC2)cc1C	-12	?	1.6	-6	22	17%
CCCCOc1ccc(-c2ncc([N+](=O)[O-])cn2)cc1	-17	8%	-5.0	-21	-19	-37%[inhibitor]
Cc1cc(NC(=O)COC(=O)C2CCC2)no1	4	6%	-5.1	-2	-2	-3%[15.4 µM]
COc1cccc(NC(=O)c2nn(-c3ccc(OC)cc3OC)c(=O)c3ccccc23)c1	nt	-9%	0.7	3	4	-9%
NC(=O)CN1CCN(S(=O)(=O)c2ccc(Cl)cc2)CC1	nt	10%	2.9	6	-1	-5%[15.4 µM]
O=[N+]([O-])c1cc(S(=O)(=O)N2CCOCC2)ccc1OCc1cccc(Cl)c1	4	9%	1.0	-19	-17	2%
OC1(c2ccc(Cl)cc2)CN(c2ccccc2)C2=[N+]1CCS2 (stereo not drawn)	-23	-2%	-7.9	-2	-11	5%[15.4 µM]
CCOc1ccc(CCNC(=O)CSc2nn(-c3ccc(C)c(Cl)c3)c(=S)s2)cc1OCC	1	-18%	9.4	-6	?	6%
CCn1cc(S(=O)(=O)CC(=O)Nc2ccc(C)cc2)c2ccccc21	-2	-12%	-4.7	5	-32	-1%
OC(c1cccc(F)c1)c1ncc(-c2ccc(Oc3ccccc3)cc2)[nH]1 (stereo not drawn)	-14	nt	6.5	?	-12	nt
COCCn1c(SCC(=O)N2CC(=O)Nc3ccccc32)nc2ccccc2c1=O	nt	-5%	2.3	-2	-7	0%

Just gsp agonist, CtBP-E1A inh and D2 potentiator (three entries from above):
mol	gsp agonist	CtBP-E1A inh	D2 potentiator
CCOc1ccc(CCNC(=O)CSc2nn(-c3ccc(C)c(Cl)c3)c(=S)s2)cc1OCC	6%	1	?
CCn1cc(S(=O)(=O)CC(=O)Nc2ccc(C)cc2)c2ccccc21	-1%	-2	-32
OC(c1cccc(F)c1)c1ncc(-c2ccc(Oc3ccccc3)cc2)[nH]1 (stereo not drawn)	nt	-14	-12

Next records follow.
SMILES	CtBP-E1A inh	gsp antag	D2 agonist	Six1-Eya2 blk	D2 potentiator	gsp agonist
CCCCNC(=S)NC(=O)c1ccccc1Br	-6	-6%	0.5	0	0	11%
O=C(/C=C/c1ccc(Cl)cc1Cl)c1ccc[nH]1	nt	-12%	-2.7	5	-6	-91%[inhibitor]
O=c1ccc2cc3c4c(c2o1)CCCN4CCC3	0	-8%	1.2	-6	8	?
Cc1cccc(NS(=O)(=O)c2cccc(C(=O)NNC(=O)c3ccccc3O)c2)c1	?	-7%	-4.0	-7	-1	-5%[15.4 µM]
COc1ccc(C2/C=C\CN(C(=O)CC(C)C)CC(=O)N2Cc2ccc(F)cc2)cc1 (stereo not drawn)	0	-8%	4.2	4	-7	nt
CC(C)c1ccc(C2C(C(=O)c3ccco3)=C(O)C(=O)N2CCN2CCOCC2)cc1 (stereo not drawn)	20	0%	0.6	6	-11	-2%[15.4 µM]
Cc1ccc(NC(=O)C(C)Sc2nnc(C)n2C)cc1 (stereo not drawn)	nt	4%	2.3	4	0	6%
CCCCOc1ccc(CSc2ncn[nH]2)cc1	4	2%	-1.9	5	-9	-28%
COC(=O)/C(C#N)=C/c1ccc(C)o1	14	17%	-0.8	-21	-8	-1%[15.4 µM]
CCOC(=O)Cc1csc(NC(=O)c2ccc(C)cc2)n1	0	-32%	-0.9	0	-43	19%[15.4 µM]
COCCn1c(Sc2nc(C)cs2)nc2c1c(=O)[nH]c(=O)n2C	7	3%	7.7	-13	-14	3%[15.4 µM]
CCCN1C(=O)C(Cc2nc3ccccc3c(=O)n2C)c2ccccc21 (stereo not drawn)	0	2%	-2.9	-2	-5	18%
CC(=O)N(c1ccccc1)c1ccc([N+](=O)[O-])cc1[N+](=O)[O-]	5	-4%	12	-4	?	14%[15.4 µM]
Cc1ccc(NC(=O)CCN2C(=O)C3CCCCC3C2=O)c(O)c1 (stereo not drawn)	8	3%	-1.1	3	-14	8%[15.4 µM]
COc1ccc(-c2coc3c(C(=O)NCc4ccc(F)c(F)c4)cccc23)c(C)c1	10	nt	6.7	10	-6	nt
CCc1ccc(NC(=O)CSc2ccc(-c3ccccn3)nn2)cc1	?	-3%	0.3	?	-13	11%
O=C(CCCC(=O)N/N=C/c1ccccc1C(=O)O)N/N=C/c1ccccc1C(=O)O	5	10%	-2.2	3	-4	21%
O=c1c2ccccc2nc(-c2ccccc2)n1Cc1ccco1	-3	-2%	-1.2	-2	0	-9%
O=C(NCc1nnnn1-c1ccc(F)c(F)c1)c1ccc(S(=O)(=O)N2CCOCC2)cc1	13	14%	-4.7	-5	5	2%
N#Cc1c(N)[nH]c2ccc(Sc3ccccc3)cc12	0	13%	1.7	-6	-6	?
CCOc1ccc(CCNC(=O)CN(C)S(=O)(=O)c2cccs2)cc1OCC	-12	-1%	-7.3	9	6	4%
Cc1ccc(S(N)(=O)=O)c(C)c1N1CCCC1=O	nt	3%	-7.2	2	-4	-81%[inhibitor]
CC1CCCN(S(=O)(=O)c2cccc(C(=O)NCc3ccco3)c2)C1 (stereo not drawn)	-10	-5%	2.5	1	-5	-1%
COc1ccc(C(=O)NCCc2nnc3ccc(SCC(=O)N4CCCC4)nn23)cc1	12	19%	1.2	0	-4	27%[15.4 µM]
CN(Cc1c(C(=O)N/N=C/c2ccccc2)nnn1-c1nonc1N)C1CCCCC1	3	-19%	-4.6	1	-2	27%
Clc1ccc(-c2cc3ccccc3nc2N2CCOCC2)cc1	nt	-11%	3.9	32	-7	3%[15.4 µM]
CCN(CC)CCNc1nc(SC)nc2sc3c(c12)CCN(C)C3	-5	-2%	-1.6	-6	-5	?
CCN(CC)S(=O)(=O)c1cccc(NC(=O)c2ccc(Br)cc2)c1	nt	-22%	3.0	-20	-11	0%[15.4 µM]
COc1ccc(-c2cc(C)no2)cc1S(=O)(=O)N1CCOc2ccccc21	nt	-2%	-1.3	-3	-11	-3%
O=C(Nc1cccc(-c2cscn2)c1)C1CCN(Cc2ccsc2)CC1	-14	-10%	-3.4	-13	-39	24%
CCCCSC1=N/C(=C/c2ccsc2)C(=O)N1c1ccccc1	54	-9%	-6.9	48	2	-8%
COc1ccc(CC(=O)Nc2nccs2)cc1OC	0	8%	-1.1	-3	7	-52%[inhibitor]
Cc1ccccc1-c1cnc(C(O)c2ccc(F)cc2C)[nH]1 (stereo not drawn)	1	nt	-1.4	0	-5	nt
